# ALR inh – blocks human ALR sulfhydryl oxidase activity. 290,000 tested, 3.8% active. P55789. inhibition, % (test concentration not listed). purified ALR, DTT oxidation, H2O2 HRP-luminol luminescence;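 active means mean and each replicate at 75% or more; inconclusive means only one of the two met; inactive means neither met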;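 further: stock transfer was 7.5 nL into about 7.5 µL; 0% = neutral wells and 100% = wells with inactivated enzyme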
# Target sequence (P55789 whole entry, looked up): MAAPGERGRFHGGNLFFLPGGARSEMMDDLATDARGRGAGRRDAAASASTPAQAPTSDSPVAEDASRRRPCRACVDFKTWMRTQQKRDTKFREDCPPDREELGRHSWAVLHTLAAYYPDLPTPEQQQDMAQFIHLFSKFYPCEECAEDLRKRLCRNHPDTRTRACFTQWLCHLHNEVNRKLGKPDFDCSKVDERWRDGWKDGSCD
# Calb FLC – C. albicans growth modulation with fluconazole; growth inhibition, % (no concentration beside the values); C. albicans CaCi-2 (fluconazole-resistant clinical isolate) + fluconazole, Alamar Blue growth, 48 h; 300,000 tested, 0.57% active; AID 1979;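 active means most replicates above 75%; inconclusive means exactly half above 75%; inactive means most below 75%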;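 further: all wells also contain fluconazole at 8 µg/ml as a sub-toxic cotreatment; 0% = median of DMSO wells and 100% = median of geldanamycin control wells; wells of about 8 µL received 7.5 nL stock; the first replicate is given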
# RanGTP-Impb inh – disruptors of Ran-importin-beta complex formation – biochemical, FRET, CFP-Ran, YFP-importin-beta, homogeneous, primary screen. inhibition, % (test concentration not listed). 300,000 tested, 1.1% active. cell-free CFP-Ran/YFP-importin-beta FRET ratio. AID 2216;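 active means most replicates above 15%; inconclusive means exactly half above 15%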;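 further: 0% = DMSO wells and 100% = Ran loaded with GDP instead of GTP; wells of about 40 µL received 100 nL stock; the first replicate is given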
# rRNA inh HTS – inhibitors of bacterial rRNA selective over humanized ribosomes; GFP signal change (wild-type ribosome), % (no concentration beside the values); E. coli WT GFP vs humanized-ribosome RFP mutants, fluorescence, 24 h; stronger effect = lower value; DMSO median 0, no signal -100; 350,000 tested, 1.6% active;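 active means significant combined selectivity score with lowered wild-type GFP, culture density cut under 30%, mutant RFP and density less affected; inactive means any of these conditions unmet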; further: one replicate is shown; some compounds called inactive have numbers as strong as hits
# Beta apoptosis – beta cell apoptosis inhibition | 300,000 tested, 0.8% active | protection from apoptosis, % (concentration not given with the values) | INS-1E cytokine-induced death, ATP luminescence, 48 h; percent of positive-control rescue, neutral wells zero;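 active means all replicates at 75% or more, or half of them and the mean; inconclusive means half reach 75% but not the mean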;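 further: 0% = cytokine-treated negative control wells and 100% = positive control rescue; higher means more ATP so stronger rescue from cytokine killing; wells of about 40 µL received 100 nL stock; the first replicate is given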
# MLL AF4-AF9 inh – blocks AF4 peptide binding to human AF9. AlphaScreen, biotin-AF4 peptide binding to FLAG-AF9. inhibition, % at 10 µM. 350,000 tested, 0.47% active. AID 651704;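 active means every replicate reaching a set inhibition limit, whatever the replicate mean, cut at about 25% in these data; inconclusive means mean inhibition reaches that limit but some replicates miss it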;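 further: 0% = plate neutral control median and 100% = total signal loss; the record names both 10 and 1 µM as test concentration; the first replicate is given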
# Target sequence (P42568 whole entry, looked up): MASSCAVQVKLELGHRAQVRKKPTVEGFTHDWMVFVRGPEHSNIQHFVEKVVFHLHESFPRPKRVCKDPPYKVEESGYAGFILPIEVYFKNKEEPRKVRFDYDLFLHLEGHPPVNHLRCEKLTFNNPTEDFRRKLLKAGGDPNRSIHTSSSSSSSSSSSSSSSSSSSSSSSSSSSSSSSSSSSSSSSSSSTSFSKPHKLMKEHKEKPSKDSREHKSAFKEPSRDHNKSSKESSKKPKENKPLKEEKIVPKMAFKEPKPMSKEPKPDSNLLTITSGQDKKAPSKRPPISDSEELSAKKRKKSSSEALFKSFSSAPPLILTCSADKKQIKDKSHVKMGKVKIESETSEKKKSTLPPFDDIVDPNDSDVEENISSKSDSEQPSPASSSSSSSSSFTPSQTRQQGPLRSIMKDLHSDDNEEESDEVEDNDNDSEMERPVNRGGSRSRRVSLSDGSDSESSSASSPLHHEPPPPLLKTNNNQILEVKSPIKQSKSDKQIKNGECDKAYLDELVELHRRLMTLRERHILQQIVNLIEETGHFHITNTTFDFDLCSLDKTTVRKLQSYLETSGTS
# T cruzi inh – blocks replication of Trypanosoma cruzi; T. cruzi beta-gal in NIH3T3, luminescence, 90 h; inhibition, % (concentration not given with the values); 300,000 tested, 1.4% active;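 active means mean inhibition across valid replicates above about 55%, limit read from the data; inconclusive means mean below that limit but half or more replicates reach it; inactive means mean below it, under half of replicates reach it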;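 further: signal also drops with host cell toxicity which is not excluded here; 0% = plate median of DMSO wells and 100% = zero luminescence signal; higher percent means less beta-gal luminescence so fewer parasites; stock transfer was 50 nL into about 50 µL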
# FGF22 binding – shifts melting point of recombinant human FGF22. calls only at 9.99 µM. AID 651658. 340,000 tested, 1.5% active. recombinant FGF22 thermal shift, SYPRO orange fluorescence; percent of sucrose octasulfate shift, DMSO zero;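 active means melting point raised past a set limit in the mean and every replicate; inconclusive means no clear call; three in four hits are not shown here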
# Target sequence (Q9HCT0 whole entry, looked up): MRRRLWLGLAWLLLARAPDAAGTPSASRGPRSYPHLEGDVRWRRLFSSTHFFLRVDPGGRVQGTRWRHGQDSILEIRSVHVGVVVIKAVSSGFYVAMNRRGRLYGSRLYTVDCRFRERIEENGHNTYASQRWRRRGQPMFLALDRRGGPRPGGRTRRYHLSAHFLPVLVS
# rRNA inh HTS OD600 – second read-out of rRNA inh HTS, no call of its own (marks repeat the call); OD600 change, %; measured here: OD600 growth;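 optical density of the mix in the first replicate; 0 = DMSO median and -100 = no signal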
# rRNA inh HTS RFP – also measured in rRNA inh HTS; calls as there; RFP signal change, %; measured here: RFP humanized mutant strains;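 first replicate; 0 = DMSO median and -100 = no signal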
# * = called active by the depositor; i = inactive; u = inconclusive; x = no result given.
SMILES,ALR inh,Calb FLC,RanGTP-Impb inh,rRNA inh HTS,rRNA inh HTS OD600,rRNA inh HTS RFP,Beta apoptosis,MLL AF4-AF9 inh,T cruzi inh,FGF22 binding
CCN(CCNC(=O)Cn1cc2c(n1)CCCC2)c1ccccc1,99*,-9,u,-3,-4,2.8,2,-2.6,7,i
COc1ccc(C2CC3(CC(C)(C)NC(SC)=N3)Oc3cc(O)cc(C)c32)cc1 (centres undefined),16,-22,7.7,4,-28,2.8,13,11,8,i
Cc1cc(C)c(C#N)c(N2CCN(S(=O)(=O)Cc3ccccc3)CC2)n1,-4,1,-2.0,-1,6,0.1,3,-1.0,15,i
O=C(Nc1ccc(Cl)cc1)N(Cc1nnc2n1CCCCC2)c1ccccc1,-2,1,-1.5,7,-4,-4.0,-4,-15,9,i
Cc1cc(C(=O)COC(=O)c2ccccc2O)c(C)n1CC1CCCO1 (centres undefined),-1,x,x,-24,-44,-0.2,12,2.6,x,i
COc1cccc(Cn2cnc3c(sc4nc(C)cc(C)c43)c2=O)c1,-1,-5,1.8,4,-1,-2.6,-5,-2.5,4,i
COc1cc(OC)cc(C(=O)N2CCN(C(=O)c3cccs3)CC2)c1,-6,0,-3.6,1,3,2.2,-5,3.0,-5,i
Cc1ccc(S(=O)(=O)Cn2nnnc2C(C(C)C)N2CCc3ccccc3C2)cc1 (centres undefined),52,3,-0.6,-15,-4,3.7,-7,x,32,x
O=C(CN1C(=O)NC(Cc2ccccc2)C1=O)NC(=O)NC1CCCCC1 (centres undefined),-8,14,0.0,x,x,x,5,x,-2,x
O=C1NC(=O)C(CC(=O)N(Cc2cccs2)C2(C(=O)NC3CCCCC3)CCCCC2)N1 (centres undefined),0,17,u,x,x,x,-3,x,7,x
COc1ccc(C(=O)NC2CC3CCCC(C2)N3Cc2ccccc2)cc1OC (centres undefined),x,2,0.6,5,6,0.2,0,-1.2,13,i
Cc1nn(CC(=O)NC(C)CCc2ccccc2)c(=O)c2nn(-c3ccccc3)c(C)c12 (centres undefined),2,-6,0.9,-3,0,-0.5,0,-1.4,15,i
O=C(O)c1cc(N/N=C/c2c[nH]c3ccccc23)ccc1Cl,67,12,7.1,6,20,0.6,-3,2.2,-2,i
CC(=O)Nc1ccc(C(=O)CN2C(=O)NC3(CCOc4ccccc43)C2=O)c(F)c1 (centres undefined),x,x,x,-7,-8,1.6,-6,3.3,x,i
COc1cccc(NC(=O)[C@@H](NC(=O)N2CCn3c2nc2ccccc23)C(C)C)c1,-6,-33,-0.3,4,-16,0.0,-8,-2.4,15,i
CCOC(=O)C1=C(C)Nc2nc3ccccc3n2C1c1ccncc1 (centres undefined),-1,8,3.2,x,x,x,5,x,11,x
Cc1ccc(Cl)cc1N1CCN(C(c2cccnc2)c2nnnn2C2CCCCC2)CC1 (centres undefined),-8,3,1.3,x,x,x,x,x,37,x
O=C(/C=C/c1ccccc1)N1CCC[C@H]1CO,-2,3,0.6,0,1,-2.0,-9,-1.5,-10,i
COCc1nnc(NC(=O)c2ccc(S(=O)(=O)N3CCCCCC3)cc2)o1,4,80*,-0.8,x,x,x,3,x,-3,x
Cn1cc(S(=O)(=O)Oc2ccccc2)c(=O)n(C)c1=O,-2,-23,-2.4,18,3,-1.6,-2,0.5,3,i
O=C(/C=C/c1ccc(Cl)cc1)NC(=S)Nc1ccc(NC(=O)c2ccco2)cc1,x,-9,-2.6,x,x,x,-1,x,-78,x
CN1C=CC=C/C1=C1\SC(=S)N(CC(=O)O)C1=O,55,8,-1.8,15,11,1.2,4,-9.2,-10,i
CC(C)(CCl)C(=O)Nc1ccnc(-c2ccncc2)n1,0,21,3.9,7,10,-0.9,3,-1.0,7,i
NC(=O)CSc1cn(Cc2cccc(F)c2)c2ccccc12,9,10,-1.3,-36,-48,-12,5,2.3,-11,i
COc1ccc(/C=C(\C#N)c2nc3ccccc3[nH]2)cc1O,x,57,7.5,-6,-3,1.3,x,-2.1,-1,i
O=C(Nc1scc(-c2ccc(Br)cc2)c1C(=O)O)c1ccccc1F,8,8,-3.3,x,x,x,6,2.2,-7,i
CC1(C)C(=O)NC(=O)N1Cc1ccccc1,x,-5,0.3,9,10,6.4,3,2.2,-14,i
O=C(NCc1ccccn1)c1cccc(S(=O)(=O)NCc2ccccc2)c1,-4,1,0.2,3,4,0.1,x,6.3,0,i
CN(C)c1ccc(/C=N/N(CCC#N)C2=NS(=O)(=O)c3ccccc32)cc1,-8,-4,-0.6,5,5,-1.2,5,3.9,-9,i
CCOC(=O)c1c(OCCO)nn(-c2ccccc2)c1N,8,-11,u,8,10,0.3,-3,0.2,-11,i

# Exported bar-delimited: entries from further up
Compound | ALR inh | Calb FLC | RanGTP-Impb inh | rRNA inh HTS | rRNA inh HTS OD600 | rRNA inh HTS RFP | Beta apoptosis | MLL AF4-AF9 inh | T cruzi inh | FGF22 binding
COc1ccc(/C=C(\C#N)c2nc3ccccc3[nH]2)cc1O | x | 57 | 7.5 | -6 | -3 | 1.3 | x | -2.1 | -1 | i
O=C(Nc1scc(-c2ccc(Br)cc2)c1C(=O)O)c1ccccc1F | 8 | 8 | -3.3 | x | x | x | 6 | 2.2 | -7 | i
CC1(C)C(=O)NC(=O)N1Cc1ccccc1 | x | -5 | 0.3 | 9 | 10 | 6.4 | 3 | 2.2 | -14 | i
O=C(NCc1ccccn1)c1cccc(S(=O)(=O)NCc2ccccc2)c1 | -4 | 1 | 0.2 | 3 | 4 | 0.1 | x | 6.3 | 0 | i
CN(C)c1ccc(/C=N/N(CCC#N)C2=NS(=O)(=O)c3ccccc32)cc1 | -8 | -4 | -0.6 | 5 | 5 | -1.2 | 5 | 3.9 | -9 | i

# The listing continues.
SMILES,ALR inh,Calb FLC,RanGTP-Impb inh,rRNA inh HTS,rRNA inh HTS OD600,rRNA inh HTS RFP,Beta apoptosis,MLL AF4-AF9 inh,T cruzi inh,FGF22 binding
COP(=O)(OC)C(Nc1ccc(C)cc1)c1ccc([N+](=O)[O-])cc1 (centres undefined),83*,-2,-1.1,-7,-9,-8.8,-6,-0.2,2,i
COc1ccc(CN2C3CCCC2CC(NC(=O)c2cccc(F)c2)C3)cc1 (centres undefined),-11,-12,-2.6,1,5,-1.2,1,-11,4,i
Cc1ccc(C(=O)n2ncn(C)c2=S)cc1,x,-2,1.1,11,18,1.6,x,-1.4,-9,i
CCN(CC)CCNCc1ccc(OCc2ccc(Cl)nc2)c(OC)c1,-4,-12,-3.8,x,x,x,0,x,13,x
Cc1[nH]c2ccccc2c1C(=O)CSc1nnc(C2CC2)o1,-4,x,x,2,14,-2.3,-3,26*,x,i
O=C(NC1CCSC1=O)c1cccc(C(=O)NC2CCSC2=O)c1 (centres undefined),-4,2,0.7,x,x,x,-14,x,-14,x
CNc1nc(NN)nc(Nc2ccccc2)n1,0,-14,1.2,4,6,6.0,1,2.1,-1,i
CC(C)(C)c1ccc(O)c(N)c1,15,11,-6.3,x,x,x,2,x,1,x
CN1CCN(NC(=O)C2CC2)CC1,8,11,0.6,x,x,x,-5,x,3,x
O=C1CCCN1CCC1CCN(C2CC(=O)N(c3ccc(Cl)cc3)C2=O)CC1 (centres undefined),32,u,u,x,x,x,x,x,-11,x
O=C(OCC(=O)N1CCCC1=O)c1nc(Cl)ccc1Cl,1,-3,x,-1,2,-0.6,1,-2.5,-2,i
CCC(C)NC(=O)/C(=C/c1ccco1)c1ccccc1 (centres undefined),u,4,-0.4,x,x,x,-10,x,2,x
O=C(c1ccc(Cl)c(S(=O)(=O)N2CCCC2)c1)N1CCCC(C(F)(F)F)C1 (centres undefined),0,2,1.6,-1,0,-1.6,2,2.7,2,i
O=c1oc2ccccc2n1Cc1cccc(Cl)c1,9,-10,-4.6,x,x,x,2,-1.0,6,i
CCOc1ccc(CN2CCN(CC3CC3)CC2CCO)cc1 (centres undefined),x,1,6.0,16,11,8.8,x,-4.4,8,i
CC(C)(C)C(=O)N1CCC(O)(CS(=O)(=O)Cc2ccccc2Cl)CC1,16,-4,2.9,x,x,x,4,x,1,x
O=C(Nc1cccc(N2C(=O)C3CCCCC3C2=O)c1)c1ccccc1 (centres undefined),-5,-2,0.5,-4,-21,-4.1,x,1.1,-10,i
COc1ccc(-n2nc3c(c2NC(=O)C(C)C)CSC3)cc1,-4,-76,1.9,8,5,5.7,0,-0.5,-6,i
Cc1c(C=O)c(Cl)n(C)c(=O)c1C#N,-8,0,-1.4,27,6,12,-3,-2.6,-13,i
O=C(NCc1ccncc1)c1cc(F)c(F)cc1Cl,-4,-1,-0.4,9,10,-1.2,-5,-2.0,-7,i
CCN(CC)c1ccc(N2C(=O)CSC2=S)cc1,98*,-2,-0.5,-15,4,17,2,9.4,-23,i
CCOC(=O)c1c(C)[nH]c(C)c1C(=O)CSc1nnc(-c2cc(OC)c(OC)c(OC)c2)o1,-15,-18,1.5,x,x,x,-1,x,-3,x
O=C(CN1C(=O)/C(=C/c2ccccc2)SC1=S)NNC(=O)c1ccccc1O,4,84*,5.7,11,10,-1.4,5,-1.1,-2,i
O=C(Nc1cccc(NC(=O)c2cccs2)c1)c1ccc(Br)o1,-1,36,-2.3,-20,-37,-2.0,3,-0.1,-4,i
Cc1cc(S(=O)(=O)Nc2ccc(C(=O)N3CCN(c4ccccc4O)CC3)cc2)ccc1F,6,48,3.3,3,3,11,9,-3.2,29,i
CN(c1ccccc1)c1nc(N)c([N+](=O)[O-])c(N2CCCC2)n1,3,2,-3.5,-27*,-19*,-6.3*,4,2.9,12,i
CC(=O)c1cccc(NC(=O)CCNC(=O)c2cccc(C)c2)c1,-2,4,-3.6,6,10,-0.1,3,-0.4,-6,i
COc1ccc(Nc2ncnc3sc(-c4ccccc4)cc23)cc1,6,-3,3.9,x,x,x,4,x,31,x
Cn1c(CNC(=O)CNC(=O)c2ccc(F)cc2)cc(=O)n(C)c1=O,-3,-32,0.4,1,15,-2.4,-2,-2.5,-44,i
Cc1cc(C)n(C(=O)Cn2nc([N+](=O)[O-])c(Br)c2C)n1,0,-2,1.4,25,10,-0.3,-13,-5.1,-14,i
CCCC12CN(C(=O)c3ccc([N+](=O)[O-])cc3)CC(C)(CN(C(=O)c3ccc([N+](=O)[O-])cc3)C1)C2=O,4,0,2.0,20,9,0.5,4,1.9,29,i
Cc1ccccc1OCC(=O)N/N=C/C=C/c1ccccc1,-4,-11,u,x,x,x,3,x,4,x
CC1CC(C)CN(C(=O)CCNC(=O)Cn2ccc3ccccc3c2=O)C1 (centres undefined),-8,2,4.3,-1,3,-1.0,x,0.6,-6,i
O=C(COC(=O)C1CCCC1)Nc1ncc(Cl)cc1Cl,-27,0,1.6,2,2,-0.3,-1,-22,-11,i
COc1ccc(/C=C/C(=O)c2ccc(NS(=O)(=O)c3ccc(C)cc3)cc2)cc1O,83*,27,-1.2,x,x,x,-23,x,-31,x
CN(C)/C=N/c1sc2c(c1C#N)CC(C)(C)NC2(C)C,-5,5,8.1,x,x,x,-2,x,-12,x
O=S(=O)(c1ccc(OCc2ccc(Br)cc2)cc1)N1CCOCC1,1,x,x,4,11,-1.3,-1,-2.1,x,i

# Assay outcomes deposited in PubChem by Broad Institute.

# Only part of the results is shown; the hit share may differ from the screen's.
